# HCMV UL50-53 inh – inhibitors of HCMV UL50-UL53 nuclear egress complex interaction; HTRF UL50-UL53 interaction, normalized percent inhibition; inhibition, % (no concentration beside the values); 0.15% of 190,000 active;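 active = both replicates at 50% or more, plus weaker picks with an unusually low signal ratio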;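 note: stock transfer was 100 nL into about 20 µL; 0% = negative control wells and 100% = wells with untagged competitor protein; inactives centre near -12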
# GIV-Gai inh – blocks GIV peptide binding to rat Galpha-i3 | Galpha-i3/FITC-GIV peptide fluorescence polarization, 90 min; active compounds read low; scaled: aluminum fluoride 0%, vehicle 100% | percent of control (FP), % (concentration not given with the values) | 0.42% of 210,000 active | AID 1224905;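 active = replicate mean at 85% of control or lower, very high polarization wells dropped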;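 note: wells of about 15 µL received 100 nL stock; the first replicate is given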
# Target sequence (P08753 whole entry, looked up): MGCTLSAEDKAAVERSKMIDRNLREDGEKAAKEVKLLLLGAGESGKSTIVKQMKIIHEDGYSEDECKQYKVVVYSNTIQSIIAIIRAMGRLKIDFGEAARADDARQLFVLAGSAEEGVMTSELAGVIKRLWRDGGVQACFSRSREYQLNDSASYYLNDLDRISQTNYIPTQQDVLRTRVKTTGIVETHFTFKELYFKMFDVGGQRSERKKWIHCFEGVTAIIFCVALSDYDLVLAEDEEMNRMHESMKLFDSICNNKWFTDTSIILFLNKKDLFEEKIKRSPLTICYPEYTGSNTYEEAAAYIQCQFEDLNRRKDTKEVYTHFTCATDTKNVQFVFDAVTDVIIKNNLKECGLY
# Sa growth inh – S. aureus growth inhibition | S. aureus RN4220 growth, OD600, 20 h, 42 °C; active compounds read low | AID 720641 | 0.53% of 170,000 active | relative growth, % (test concentration not listed);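 active = growth at 42 °C up to 50% and 20 or more points under that at 30 °C, or under 10% at both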;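 note: 300 nL library stock went into each well; scaled to the means of positive and negative controls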
# Sa growth inh second temp – further read-out of Sa growth inh, marked with its call; relative growth, %; measured here: growth at 30 °C;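 optical density after 20 h as mean of two plates; 100% = untreated growth and lower means inhibition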
# An asterisk follows results filed as active; nt = no result given.
No.	molecule	HCMV UL50-53 inh	GIV-Gai inh
1	COC(=O)c1ccc(CSc2nnc(-c3ccc(OC)cc3)o2)cc1	-13.4	98.8
2	Cc1cc(C)n(-c2n[nH]c(=O)c3ccccc23)n1	-23.7	102.1
3	CCOC(=O)c1cccc(NC(=O)C2CCCN(S(=O)(=O)c3cn(C)cn3)C2)c1 (stereo unspecified)	-26.1	105.8
4	N#CCC(=O)NCc1ccc(F)cc1F	-10.2	103.6
5	CCN(CC)S(=O)(=O)c1cc(C(=O)N(C)c2ccccc2)ccc1Cl	-23.2	nt
6	O=c1ccc(C(F)(F)F)cn1CN1CCN(S(=O)(=O)c2ccc3c(c2)CCCC3)CC1	-37.8	nt
7	Cc1cc(-c2ccc(C)c(S(=O)(=O)NCCN3CCN(c4cc(Cl)ccc4C)CC3)c2)on1	-21.8	105.1
8	COC(=O)c1ccc([C@@H]2Nc3c(OC)ccc(C)c3[C@@H]3C=CC[C@@H]32)cc1	-28.2	109.0
9	CCOC(=O)C1CCCN(C(=O)c2ccc3c(c2)sc2nc(-c4ccc(C)cc4C)cn23)C1 (stereo unspecified)	nt	107.5
10	CCn1c(C(=O)NCc2ccccc2Br)cc2oc3ccccc3c21	10.8	103.5

No.	Sa growth inh	Sa growth inh second temp
1	104.6	95.4
2	93.3	77.6
3	nt	nt
4	106.9	89.8
5	94.5	83.6
6	76.2	95.0
7	90.3	84.0
8	92.9	81.5
9	111.2	89.9
10	82.9	93.4

# (continued)
No.	molecule	HCMV UL50-53 inh	GIV-Gai inh
11	O=C(NCCCO)NC1CCCCC1	-6.3	98.0
12	CC1CCC(C(C)C)C(OC(=O)Cn2nnc(-c3ccccc3)n2)C1 (stereo unspecified)	-34.9	nt
13	COc1ccc(C(C(O)C(=O)c2c[nH]c3ccccc23)N2CCN(c3ccccc3)CC2)cc1 (stereo unspecified)	-10.4	nt
14	O=C(COc1ccccc1)Nc1ccc(-c2nc3ncccc3o2)cc1	-5.6	102.2
15	O=C(c1cnn(-c2cccc(F)c2)c1-n1cccc1)N1CCN(c2ccccc2F)CC1	nt	96.6
16	CCc1ccc(S(=O)(=O)NCC(O)COc2ccc(OC)cc2)cc1 (stereo unspecified)	-9.9	100.7
17	O=C(OCC1COc2ccccc21)c1nc2ccccc2nc1Nc1cccc(F)c1 (stereo unspecified)	5.5	104.1
18	COC(=O)c1sc(Sc2cccs2)c2c1CC(C)(C)CC2=O	6.1	109.8
19	COc1cc(OC)cc(C(=O)Nc2cc(NC(=O)c3ccco3)ccc2OC)c1	-5.0	99.2
20	CSc1ccc(C(=O)NC(=O)NCc2cccc(Cl)c2)s1	-43.6	106.6

No.	Sa growth inh	Sa growth inh second temp
11	110.6	77.0
12	109.6	94.3
13	106.8	91.8
14	90.6	83.5
15	93.0	85.7
16	102.8	97.5
17	nt	nt
18	104.4	99.1
19	77.9	56.8
20	92.3	86.8

# Compounds 6 to 20 from above:
No.	molecule	HCMV UL50-53 inh	GIV-Gai inh
6	O=c1ccc(C(F)(F)F)cn1CN1CCN(S(=O)(=O)c2ccc3c(c2)CCCC3)CC1	-37.8	nt
7	Cc1cc(-c2ccc(C)c(S(=O)(=O)NCCN3CCN(c4cc(Cl)ccc4C)CC3)c2)on1	-21.8	105.1
8	COC(=O)c1ccc([C@@H]2Nc3c(OC)ccc(C)c3[C@@H]3C=CC[C@@H]32)cc1	-28.2	109.0
9	CCOC(=O)C1CCCN(C(=O)c2ccc3c(c2)sc2nc(-c4ccc(C)cc4C)cn23)C1 (stereo unspecified)	nt	107.5
10	CCn1c(C(=O)NCc2ccccc2Br)cc2oc3ccccc3c21	10.8	103.5
11	O=C(NCCCO)NC1CCCCC1	-6.3	98.0
12	CC1CCC(C(C)C)C(OC(=O)Cn2nnc(-c3ccccc3)n2)C1 (stereo unspecified)	-34.9	nt
13	COc1ccc(C(C(O)C(=O)c2c[nH]c3ccccc23)N2CCN(c3ccccc3)CC2)cc1 (stereo unspecified)	-10.4	nt
14	O=C(COc1ccccc1)Nc1ccc(-c2nc3ncccc3o2)cc1	-5.6	102.2
15	O=C(c1cnn(-c2cccc(F)c2)c1-n1cccc1)N1CCN(c2ccccc2F)CC1	nt	96.6
16	CCc1ccc(S(=O)(=O)NCC(O)COc2ccc(OC)cc2)cc1 (stereo unspecified)	-9.9	100.7
17	O=C(OCC1COc2ccccc21)c1nc2ccccc2nc1Nc1cccc(F)c1 (stereo unspecified)	5.5	104.1

No.	Sa growth inh	Sa growth inh second temp
6	76.2	95.0
7	90.3	84.0
8	92.9	81.5
9	111.2	89.9
10	82.9	93.4
11	110.6	77.0
12	109.6	94.3
13	106.8	91.8
14	90.6	83.5
15	93.0	85.7
16	102.8	97.5
17	nt	nt

No.	molecule	HCMV UL50-53 inh	GIV-Gai inh
18	COC(=O)c1sc(Sc2cccs2)c2c1CC(C)(C)CC2=O	6.1	109.8
19	COc1cc(OC)cc(C(=O)Nc2cc(NC(=O)c3ccco3)ccc2OC)c1	-5.0	99.2
20	CSc1ccc(C(=O)NC(=O)NCc2cccc(Cl)c2)s1	-43.6	106.6

No.	Sa growth inh	Sa growth inh second temp
18	104.4	99.1
19	77.9	56.8
20	92.3	86.8

# Next entries
No.	molecule	HCMV UL50-53 inh	GIV-Gai inh
21	COC(=O)CC1C(=O)NCCN1C(=O)CSc1nc2ccccc2s1 (stereo unspecified)	3.6	nt
22	CC(=O)NCc1ccc(-c2csc(NC(=O)c3cnn(-c4ccccc4)n3)n2)cc1	-5.4	nt
23	CCOc1ccccc1C1C(C#N)=C(SCC(=O)OCc2ccccc2)NC(=O)C1C#N (stereo unspecified)	-21.5	105.2
24	COC(=O)c1cc(-c2ccccc2)n[nH]1	13.5	nt
25	O=C(NCC(c1cccnc1)N1CCc2ccccc2C1)c1ccc(Br)cc1 (stereo unspecified)	-11.4	107.8
26	S=c1nc(N=Cc2ccco2)cc(/N=C/c2ccco2)[nH]1	-23.2	nt
27	CCOc1ccc(CNC(=O)c2cc3cc4ccc(OC)cc4nc3o2)cc1	0.1	96.4
28	NC(=O)C1CCN(CC(O)CSc2ccc(F)cc2)CC1 (stereo unspecified)	-8.2	99.8
29	Cc1nn(-c2ccccc2)c(OC(=O)C(C)C)c1Sc1ccc(Cl)cc1	-12.3	103.6
30	CCOC(=O)C1=C(C)N=c2s/c(=C\c3ccc(OC)c(O)c3)c(=O)n2C1c1ccc(OC)c(OC)c1 (stereo unspecified)	-19.0	104.7

No.	Sa growth inh	Sa growth inh second temp
21	73.4	84.2
22	107.3	91.8
23	nt	nt
24	105.6	87.9
25	nt	nt
26	81.3	76.1
27	nt	nt
28	100.0	95.4
29	34.3	19.8
30	nt	nt

# (list continues)
No.	molecule	HCMV UL50-53 inh	GIV-Gai inh
31	O=C(Nc1nccs1)c1ccc(S(=O)(=O)N2CCCc3ccccc32)cc1	9.9	nt
32	COc1ccc(C2CC(=O)Nc3c2c(=O)n(C)c2nc4ccccc4n32)cc1 (stereo unspecified)	-24.5	107.0
33	CCN(CC)C1=CC(=O)OC12CCCCC2	3.7	104.3
34	O=C(O)CC(CC(=O)Oc1ccc(F)cc1)c1ccc(Cl)cc1Cl (stereo unspecified)	-3.5	103.6
35	COc1ccc2nc(NC(=O)c3cc(=O)c4ccccc4o3)sc2c1	-27.7	105.7
36	COc1ccc(C2CCCN2C(=O)c2cc(C3CC3)on2)cc1 (stereo unspecified)	-15.5	107.2
37	O=C(C1CC1)N1CCCC1c1nc2ccccc2s1 (stereo unspecified)	-0.3	103.9
38	Cc1cc2c(cc1S(=O)(=O)N1CCC(C(=O)NCc3ccc(Cl)cc3)CC1)OCC(=O)N2	-7.1	96.7
39	CS(=O)(=O)NCC(c1ccco1)N1CCN(c2ccccc2)CC1 (stereo unspecified)	nt	96.6
40	Cc1nn(-c2ccccc2)c(OC(=O)c2ccccc2Br)c1S(=O)(=O)c1ccccc1	-3.3	105.4

No.	Sa growth inh	Sa growth inh second temp
31	110.5	102.3
32	110.7	80.5
33	94.4	111.8
34	101.4	100.1
35	105.9	82.0
36	nt	nt
37	nt	nt
38	nt	nt
39	98.3	89.5
40	118.2	90.8

# A second format for part of the listing above:
34	O=C(O)CC(CC(=O)Oc1ccc(F)cc1)c1ccc(Cl)cc1Cl (stereo unspecified)
  HCMV UL50-53 inh: -3.5 | GIV-Gai inh: 103.6 | Sa growth inh: 101.4 | Sa growth inh second temp: 100.1
35	COc1ccc2nc(NC(=O)c3cc(=O)c4ccccc4o3)sc2c1
  HCMV UL50-53 inh: -27.7 | GIV-Gai inh: 105.7 | Sa growth inh: 105.9 | Sa growth inh second temp: 82.0
36	COc1ccc(C2CCCN2C(=O)c2cc(C3CC3)on2)cc1 (stereo unspecified)
  HCMV UL50-53 inh: -15.5 | GIV-Gai inh: 107.2 | Sa growth inh: nt | Sa growth inh second temp: nt

# (next part)
No.	molecule	HCMV UL50-53 inh	GIV-Gai inh
41	COc1ccc(C=C2C(=O)NC(=S)NC2=O)cc1OCc1ccc(Cl)cc1Cl	-9.3	100.9
42	COc1ccc(CN2C(=O)CCC2(C)C(=O)NCCC(C)C)cc1 (stereo unspecified)	-16.9	107.8
43	CN1CCN(C(=O)/C(C#N)=c2\s/c(=C\c3ccc4c(c3)OCO4)c(=O)n2Cc2ccco2)CC1	-56.7	nt
44	COc1ccccc1CNC(=O)c1cn(C)c(=O)c2cc(OC)c(OC)cc12	-27.6	97.3
45	Cc1ccc(Cl)cc1NS(=O)(=O)c1ccc2oc(=O)c3ncn(C)c3c2c1	nt	100.9
46	COc1ccc(NC(=O)Cc2nnc(SCc3ccccc3)n2-c2ccccc2)cc1	-27.6	107.9
47	O=C(/C=C/c1ccccc1)OCc1cnc(Cl)s1	-26.6	98.0
48	CCc1cc2c(=O)c(-c3ccn(C(C)=O)n3)coc2cc1OC(C)=O	6.1	nt
49	N/C(Cn1ccc(C(F)(F)F)n1)=N\OC(=O)Nc1ccc(Cl)cc1	-26.2	100.9
50	COc1cc(CN2CCN(C(=O)c3ccccc3F)CC2)cc(OC)c1OC	14.6	107.3

No.	Sa growth inh	Sa growth inh second temp
41	nt	nt
42	104.9	93.7
43	114.2	84.8
44	98.5	85.4
45	102.3	101.2
46	nt	nt
47	nt	nt
48	104.0	99.4
49	87.2	88.4
50	99.2	95.3

# Next section.
No.	molecule	HCMV UL50-53 inh	GIV-Gai inh
51	O=C(CN1CCN(CC(=O)Nc2ccccc2F)CC1)Nc1ccc(Cl)c(C(F)(F)F)c1	nt	106.5
52	O=C(CN1CCC(n2nnc3cc(C(F)(F)F)ccc32)CC1)Nc1ccc(N2CCCC2)cc1	6.3	106.2
53	CN(C(=O)COC(=O)c1cc(=O)[nH]c2ccccc12)c1c(N)n(Cc2ccccc2)c(=O)[nH]c1=O	-31.7	nt
54	COc1cc(OC)cc(-c2noc(CSc3ccc(-c4ccc(OC)c(OC)c4)nn3)n2)c1	13.6	102.0
55	O=C(O)c1cccc(NC(=O)C2CCCCC2C(=O)O)c1 (stereo unspecified)	nt	102.4
56	CC(=O)Nc1ccc(N=NN2CCCCC2)cc1	-61.1	95.9
57	Cc1nc(N2CCOCC2)nc2oc(-c3ccccc3)nc12	-30.4	99.6
58	CC(=O)NC1C(OCc2ccccc2)OC(CO)C(O)C1OC(C)=O (stereo unspecified)	-23.2	106.0
59	CC(=O)Nc1cccc(C(=O)N(C)CCOc2ccccc2)c1	0.0	nt
60	O=C1C=CC(=O)N1c1cc(C(F)(F)F)ccc1Cl	6.6	nt

No.	Sa growth inh	Sa growth inh second temp
51	138.6	82.7
52	101.7	87.1
53	97.0	87.8
54	nt	nt
55	103.5	87.0
56	96.5	92.5
57	nt	nt
58	85.9	81.7
59	95.2	95.6
60	109.0	101.8

# (further entries)
No.	molecule	HCMV UL50-53 inh	GIV-Gai inh
61	CCn1nnc2cc(C(=O)N(C)CC(=O)Nc3c(C)n(C)n(-c4ccccc4)c3=O)ccc21	8.0	104.9
62	O=C(CCc1ccccc1)N1CCc2c([nH]c3ccccc23)C1c1ccc(Cl)cc1 (stereo unspecified)	nt	100.4
63	C=CCN(CC=C)Cn1c(=S)oc2ccc(S(=O)(=O)Nc3ccc(OC)cc3)cc21	-21.4	nt
64	Cc1cc(Nc2cccc(Cl)c2)nc2ccc(NC(=O)c3ccccn3)cc12	nt	97.7
65	CCOc1ccc(C(=O)OCC(=O)Nc2ccc(S(N)(=O)=O)cc2)cc1	8.2	nt
66	CCN(CC)CCN(C(=O)c1ccc(C(=O)OC)cc1)c1nc2ccc(Cl)cc2s1	nt	106.4
67	O=C1C(c2ccc(C(F)(F)F)cc2)=C(Nc2ccc(Cl)cc2)c2ccccc21	-12.8	101.7
68	COc1ccc(CCC(=O)NCc2ccc3c(c2)CCN3C(=O)c2ccc(F)cc2)cc1	nt	102.1
69	O=C(Nc1ccccc1)C1CC(=O)n2ncnc2N1 (stereo unspecified)	nt	102.6
70	Cc1cc(OC(C)C(=O)N(Cc2ccco2)Cc2ccco2)cc(C)c1Cl (stereo unspecified)	-20.9	101.2

No.	Sa growth inh	Sa growth inh second temp
61	nt	nt
62	78.6	102.9
63	100.6	91.2
64	117.9	59.6
65	115.5	93.3
66	113.8	95.6
67	106.9	90.2
68	112.6	86.7
69	105.5	97.5
70	85.4	69.6

# Other results follow:
No.	molecule	HCMV UL50-53 inh	GIV-Gai inh
71	CC1CCC(NC(=O)CN2CCC(n3nnc4ccccc43)CC2)CC1 (stereo unspecified)	-13.7	104.6
72	Cc1nc2c(-c3ccc(F)cc3)c(C)nn2c(C)c1CCC(=O)N1CCN(c2ccccn2)CC1	15.8	101.2
73	CC(C)Nc1c(-c2ccccc2)nc2ccccn12	0.4	106.6
74	COc1cccc(N2CCN(c3ccc4nnc(CCC(=O)O)n4n3)CC2)c1	-27.4	108.3

No.	Sa growth inh	Sa growth inh second temp
71	109.2	75.1
72	nt	nt
73	89.0	83.3
74	95.5	87.1
